Screening results (PubChem)
HCMV UL50-53 inh = cytomegalovirus nuclear egress complex inhibition; HTRF UL50-UL53 interaction, normalized percent inhibition; inhibition, % (no concentration beside the values); 190,000 tested, 0.15% active; AID 1918969;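 active = both replicates at 50% or more, plus weaker picks with an unusually low signal ratio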;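 also: stock transfer was 100 nL into about 20 µL; 0% = negative control wells and 100% = wells with untagged competitor protein; inactives centre near -12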
GIV-Gai inh = GIV-Galpha-i interaction inhibition; P08753; Galpha-i3/FITC-GIV peptide fluorescence polarization, 90 min; active compounds read low; scaled: aluminum fluoride 0%, vehicle 100%; percent of control (FP), % (test concentration not listed); 210,000 tested, 0.42% active;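 active = replicate mean at 85% of control or lower, very high polarization wells dropped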;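 also: lower values mean more displacement of the GIV peptide from Galpha-i3; wells of about 15 µL received 100 nL stock; the first replicate is given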
Target sequence (P08753 whole entry, looked up): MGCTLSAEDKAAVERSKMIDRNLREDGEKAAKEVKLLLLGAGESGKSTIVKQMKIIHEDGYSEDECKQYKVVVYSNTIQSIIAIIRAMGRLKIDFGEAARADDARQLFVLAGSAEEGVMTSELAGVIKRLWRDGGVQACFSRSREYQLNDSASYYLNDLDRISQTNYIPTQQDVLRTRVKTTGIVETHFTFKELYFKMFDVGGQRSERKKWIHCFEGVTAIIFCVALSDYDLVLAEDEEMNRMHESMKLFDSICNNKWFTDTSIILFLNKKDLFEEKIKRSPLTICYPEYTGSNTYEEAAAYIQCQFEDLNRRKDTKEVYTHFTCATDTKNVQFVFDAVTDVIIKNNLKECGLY
Sa growth inh = S. aureus growth inhibition | 170,000 tested, 0.53% active | AID 720641 | S. aureus RN4220 growth, OD600, 20 h, 42 °C; active compounds read low | relative growth, % (no concentration beside the values);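 active = growth at 42 °C up to 50% and 20 or more points under that at 30 °C, or under 10% at both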;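 also: 300 nL library stock went into each well; scaled to the means of positive and negative controls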
Sa growth inh second temp = second read-out of Sa growth inh, no call of its own (marks repeat the call); relative growth, %; measured here: growth at 30 °C;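 optical density after 20 h as mean of two plates; 100% = untreated growth and lower means inhibition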
Numbers without * were called inactive; . = not tested or not shown; & = joins results of further samples.

Below each compound – HCMV UL50-53 inh	GIV-Gai inh	Sa growth inh	Sa growth inh second temp
#1 COc1ccc2cc(C(=O)NC(C)=O)c(=Nc3ccc(C(F)(F)F)cc3)oc2c1
→ 0	100	.	.
#2 NC(=O)C(C(=O)/C=C/c1ccc(F)cc1)=C1SCS1
→ -7	.	99	89
#3 CCCCCSc1nc2c(cnn2-c2ccc(F)cc2)c(=O)[nH]1
→ -26	98	.	.
#4 COc1ccc(-c2cc(C(=O)N3CCC4(CC3)OCCO4)[nH]n2)cc1
→ .	102	95	91
#5 O=C(Nc1ccc(-c2nc3ccccc3o2)cc1)c1ccc(S(=O)(=O)N2CCc3ccccc3C2)cc1
→ -34	103	.	.
#6 N#Cc1cccc2c1[nH]c1ccc(Cl)cc12
→ -11	108	120	105
#7 COc1ccc(OC)c(C2CC(=O)c3c([nH]c(C(=O)OC4CCC(C)CC4)c3C)C2)c1 (stereo unspecified)
→ -2	104	117	94
#8 Clc1ccc(OCc2nc3c4cnn(Cc5ccccc5)c4ncn3n2)cc1
→ -17	97	.	.
#9 Cn1c(Cc2noc(-c3ccccc3)n2)nc2ccccc21
→ 11	110	108	91
#10 O=c1[nH]nc(N2CCSCC2)[nH]1
→ -8	100	99	93

The list goes on:
Below each compound – HCMV UL50-53 inh	GIV-Gai inh	Sa growth inh	Sa growth inh second temp
#11 Cc1ccc(-c2nc3ccccc3n2CCNS(=O)(=O)c2ccc(C)cc2C)cc1
→ -30	106	.	.
#12 Cn1c(SCC(=O)NCCC2=CCCCC2)nc2sccc2c1=O
→ -12	.	94	87
#13 COc1cc(/C=c2\sc3nc(-c4ccccc4C)nn3c2=O)cc(Br)c1OC(C)=O
→ .	213	127	87
#14 O=C1O/C(=C\c2ccccc2)c2ccccc21
→ -78	105	86	72
#15 COc1ccc(OCCn2nnc3sc4c(c3c2=O)CCC(C(C)(C)C)C4)cc1 (stereo unspecified)
→ -1	103	98	84
#16 CCOC(=O)c1c(C)oc2ncnc(N(CCO)c3ccccc3)c12
→ 12	103	.	.
#17 COc1ccc(NC(=O)Cn2c(-c3ccc(F)cc3)cc(C(C)=O)c2C)c(OC)c1
→ .	110	128	104
#18 O=C(NCc1ccc(Cl)cc1)C(=O)NCC(c1ccc2c(c1)OCO2)N1CCOCC1 (stereo unspecified)
→ .	97	104	81
#19 CCc1cccc(NC(=S)N(C)Cc2cn(C)c3ccccc23)c1
→ .	104	90	70
#20 CCc1cccc(NCc2ccccc2-c2nnc(-c3ccccc3Cl)o2)c1
→ -11	103	94	87

Ordered by length of the SMILES (smallest number first): 3 of the compounds above.
Below each compound – HCMV UL50-53 inh	GIV-Gai inh	Sa growth inh	Sa growth inh second temp
#8 Clc1ccc(OCc2nc3c4cnn(Cc5ccccc5)c4ncn3n2)cc1
→ -17	97	.	.
#15 COc1ccc(OCCn2nnc3sc4c(c3c2=O)CCC(C(C)(C)C)C4)cc1 (stereo unspecified)
→ -1	103	98	84
#17 COc1ccc(NC(=O)Cn2c(-c3ccc(F)cc3)cc(C(C)=O)c2C)c(OC)c1
→ .	110	128	104

(continued)
Below each compound – HCMV UL50-53 inh	GIV-Gai inh	Sa growth inh	Sa growth inh second temp
#21 Cc1nn(C)c2c1c(C(F)(F)F)cc(=O)n2CC(=O)N1CCCCC1C (stereo unspecified)
→ .	100	95	89
#22 O=C1COc2ccc(S(=O)(=O)N3CCCC(C(=O)N4CCCc5ccccc54)C3)cc2N1 (stereo unspecified)
→ -17	107	.	.
#23 Cc1cccc(-c2noc(CN(C(=O)Cc3ccccc3)C(C)C)n2)c1
→ 19	109	92	87
#24 NS(=O)(=O)c1ccc(NC(=O)CN2CCCCCC2)cc1
→ -39	.	102	93
#25 COc1cccc(C(N)=O)c1OCC(=O)N(C1CCCCC1)C1CCCCC1
→ -14	.	120	60
#26 CCOC(=O)c1ccc2c(c1)sc1nc(-c3ccc(C)cc3C)cn12
→ .	107	94	86
#27 O=C(/C=C/c1ccc(OC(F)(F)F)cc1)N1CCOCC1
→ -16	98	99	81
#28 Cc1cc(NC(=O)c2cccn2-c2nnc(N3CCCCC3)s2)ccc1Br
→ .	104	128	99
#29 NC(=O)c1cnc2ncnn2c1N
→ -32	102	.	.
#30 CC(C)CN1CCC(CNC(=O)c2cccc3c2C(=O)N(Cc2cccnc2)C3)C1 (stereo unspecified)
→ 2	98	100	84

The list continues.
Below each compound – HCMV UL50-53 inh	GIV-Gai inh	Sa growth inh	Sa growth inh second temp
#31 CCN=C1SC(CC(=O)Nc2sc(C)c(C)c2C(=O)OCC)C(=O)N1CC (stereo unspecified)
→ -19	102	100	89
#32 Nc1ccnn1CC1CCCCC1
→ -12	.	96	90
#33 CCOc1ncccc1C(=O)OCc1cc(=O)n2cc(Br)ccc2n1
→ -15	.	81	82
#34 CC(=O)Nc1cc(Cl)ccc1Nc1ccccc1
→ -29	.	84	85
#35 O=C(O)C1CSC2(C(=O)O)CCC(=O)N12 (stereo unspecified)
→ -9	.	104	93
#36 CCN(C(=O)c1ccc2c(c1)N(Cc1cccc(Cl)c1)C(=O)c1ccccc1S2=O)c1ccccc1 (stereo unspecified)
→ .	103	107	99
#37 CSc1nc2ccccc2c(=O)n1CC(=O)C(C)(C)C
→ -34	105	100	87
#38 CCc1nnc(NC(=O)Cn2nc(Cc3ccncc3)c3ccccc3c2=O)s1
→ -7	109	96	96
#39 CS(=O)(=O)c1[nH]nc(-c2ccccc2Cl)c1C#N
→ -25	102	95	90
#40 CC(C)Oc1ccc(C2CC(=O)NC3=C2C(=O)CCC3)cc1 (stereo unspecified)
→ -14	97	.	.

Five entries drawn at random from those above, as already listed:
Below each compound – HCMV UL50-53 inh	GIV-Gai inh	Sa growth inh	Sa growth inh second temp
#32 Nc1ccnn1CC1CCCCC1
→ -12	.	96	90
#35 O=C(O)C1CSC2(C(=O)O)CCC(=O)N12 (stereo unspecified)
→ -9	.	104	93
#31 CCN=C1SC(CC(=O)Nc2sc(C)c(C)c2C(=O)OCC)C(=O)N1CC (stereo unspecified)
→ -19	102	100	89
#37 CSc1nc2ccccc2c(=O)n1CC(=O)C(C)(C)C
→ -34	105	100	87
#34 CC(=O)Nc1cc(Cl)ccc1Nc1ccccc1
→ -29	.	84	85

Additional entries follow.
Below each compound – HCMV UL50-53 inh	GIV-Gai inh	Sa growth inh	Sa growth inh second temp
#41 COc1ccccc1CNC(=O)c1ccc(-c2nc(CS(=O)(=O)c3ccc(C)cc3)c(C)o2)cc1
→ .	101	146	96
#42 CCN(CC)C(=S)Nc1ccc2nc3n(c(=O)c2c1)CCCCC3
→ 6	95	86	85
#43 O=C(NC(=O)c1ccc(F)cc1F)c1ccccc1O
→ -66	107	105	88
#44 CCC(=O)Nc1ccc(C#N)cc1
→ -8	.	102	87
#45 COc1cccc(NC(=O)CN2C(=O)C3(SCC(=O)N3c3cc(C)cc(C)c3)c3ccccc32)c1 (stereo unspecified)
→ .	102	89	93
#46 CCCOc1cccc(C(=O)NCc2cccnc2)c1
→ -4	102	102	83
#47 Cc1cc(=O)[nH]c2c1c(=O)[nH]n2C1CC(C)N(C)CC1C (stereo unspecified)
→ 19	111	109	92
#48 Cc1ccc(S(=O)(=O)NC(=O)Oc2ccccc2N2CCOCC2)cc1
→ -12	104	98	85
#49 Cc1ccc(S(=O)(=O)N(CC(=O)NCCSc2ccc(Cl)cc2)c2ccccc2C)cc1
→ -5	107	98	81
#50 COc1ccc(Cn2c(=O)n(-c3ccc(F)c(Cl)c3)c(=O)c3c2c2cc(OC)ccc2n3C)cc1
→ .	108	128	88

Continued:
Below each compound – HCMV UL50-53 inh	GIV-Gai inh	Sa growth inh	Sa growth inh second temp
#51 CC1CCN(Cn2nc(-c3ccccc3)oc2=S)CC1
→ .	97	114	81
#52 O=C(O)CCC(=O)N1CCOc2ccccc21
→ .	102	95	88
#53 CCN(CC)C(=O)NC(=O)c1c(C)cc(Cl)nc1Cl
→ -7	.	81	87
#54 CCC(=O)N(C)c1nc(-c2ccc(Cl)s2)cs1
→ -24	104	105	80
#55 CCCCc1cc(=O)oc2cc(OCC(N)=O)ccc12
→ .	96	96	92
#56 COc1ccc(CCN2CCC(CNC(=O)c3cnn(-c4ccccc4)c3C3CCN(C(=O)OC(C)(C)C)CC3)CC2)cc1
→ .	107	84	88
#57 COc1ccc(CCN(C)C(C)C(=O)NC2CCCC2)cc1OC (stereo unspecified)
→ -22	.	92	91
#58 CCOC(=O)c1[nH]c(C)c(C(=O)NCCc2ccc(OC)c(OC)c2)c1CC
→ .	99	114	91
#59 CCc1nn2c(=O)cc(CN3c4ccccc4CC3C)nc2s1 (stereo unspecified)
→ -13	.	91	96
#60 Cc1cc(S(=O)(=O)Nc2ccc3oc4c(c3c2)CCCC4)ccc1Cl
→ -13	101	79	65

New compounds follow.
Below each compound – HCMV UL50-53 inh	GIV-Gai inh	Sa growth inh	Sa growth inh second temp
#61 Cn1c2ccc(N=Cc3ccccc3O)cc2c2nc3ccccc3nc21
→ .	106	96	88
#62 Cc1nn(-c2ccccc2)nc1C(=O)Sc1ccccn1
→ .	103	120	97
#63 Cn1c(=O)c(=O)n(C)c2cc(S(=O)(=O)CCC(=O)N3CCCc4ccccc43)ccc21
→ .	105	102	97
#64 Cc1cc(C)c(Cn2c(=O)n(CCCCC(=O)NCc3ccccc3Cl)c(=O)c3ccccc32)c(C)c1
→ 1	103	94	91
#65 Cc1ccc2oc(=O)c3cc(C(=O)Nc4cccc(C#N)c4)sc3c2c1
→ -10	107	101	83
#66 COCCCNC(=O)CCn1c(=O)c2ccccc2n(CC(=O)Nc2c(C)cc(C)cc2C)c1=O
→ 12	100	107	90
#67 Cn1ccnc1SCC(=O)N1Cc2ccccc2CC1C(=O)O (stereo unspecified)
→ -9	.	95	84
#68 N=C1CCCN1CC(=O)c1ccc(Br)cc1
→ -11	.	89	90
#69 Cc1cc(NCc2cccnc2)n2nc(C(F)(F)F)c(-c3ccccc3Cl)c2n1
→ -4	107	.	.
#70 COc1ccc(OCCNC(=O)c2nccnc2C(=O)O)cc1
→ -24	96	102	93

Additional records:
Below each compound – HCMV UL50-53 inh	GIV-Gai inh	Sa growth inh	Sa growth inh second temp
#71 O/N=C/c1c(O)ccc2ccccc12
→ -23	98	89	95
#72 CC(C)(C)C(N)=NC#N
→ -19	.	82	92
#73 Cc1cccc(-n2nnc(-c3nc(-c4cccs4)no3)c2N)c1
→ .	99	91	85
#74 COC(=O)c1ccc(C(=O)OC)c(NC(=S)N2CCCCC2C)c1 (stereo unspecified)
→ .	104	103	87
#75 O=C(O)[C@@H]1CCCCN1C(=O)OCC1c2ccccc2-c2ccccc21
→ -33	100	93	86
#76 O=C(CC(c1cccs1)N1Cc2ccccc2C1=O)NCCN1CCOCC1 (stereo unspecified)
→ -19	102	93	91
#77 COc1c(Cl)cc(Cl)cc1CNCC1CCCO1 (stereo unspecified)
→ -18	100	89	87
#78 Cc1cc(C(=O)N2CCCC2)c2ccccc2n1
→ -31	104	.	.
#79 Cc1nnc(SCC(=O)NCCc2ccco2)c2nn(-c3ccccc3)c(C)c12
→ -35	104	110	92
#80 Cc1ccc(NC(=O)C2CCN(S(=O)(=O)c3cc(-c4noc(C)n4)ccc3C)CC2)c(C)c1
→ .	112	113	101

Following part.
Below each compound – HCMV UL50-53 inh	GIV-Gai inh	Sa growth inh	Sa growth inh second temp
#81 CCN(CC)S(=O)(=O)c1cccc2cc(C(=O)O)c(O)cc12
→ .	104	112	114
#82 Clc1ccc(OCCBr)c(Cl)c1
→ 2	103	.	.
#83 CN(C)S(=O)(=O)c1cccc(C(=O)N=c2sc3ccccc3n2C)c1
→ 8	.	102	95
#84 CC(C)c1ccc(NC(=O)CN2N=C(c3ccc(Cl)cc3)CCC2=O)cc1
→ .	102	115	78
#85 COc1ccc(-c2noc(NCC3CCCO3)n2)cc1 (stereo unspecified)
→ -38&8	101&100	97	84
#86 O=c1oc(-c2ccccc2)nc2sc3c(c12)CCCC3
→ -2	106	.	.
#87 O=C(CSc1nnc2n1CCCCC2)Nc1cccc2ccccc12
→ -16	.	99	101
#88 O=C(Nc1ccccn1)Nc1cccs1
→ 2	99	105	96
#89 N#Cc1ccc(COC(=O)CCC2CCCC2)cc1
→ -21	.	94	91
#90 Cc1ccc2cc3cc(C(=O)N(C)c4ccccc4C)oc3nc2c1
→ -35	104	101	91

Next compounds.
Below each compound – HCMV UL50-53 inh	GIV-Gai inh	Sa growth inh	Sa growth inh second temp
#91 O=C(CSc1nccn2nc(-c3ccc(F)cc3)cc12)Nc1ccc2c(c1)OCCO2
→ 1	106	.	.
#92 COc1ccc(/C=c2\sc3n(c2=O)C(c2c(OC)ccc4ccccc24)C(C(C)=O)=C(C)N=3)c(OC)c1 (stereo unspecified)
→ -17	100	.	.
#93 COC(=O)COc1ccc(/C=C2\C(=O)NC(=O)N(c3cccc(Br)c3)C2=O)cc1OC
→ -5	113	.	.
#94 S=C(NCCc1ccccc1)NCC(c1cccnc1)N1CCOCC1 (stereo unspecified)
→ .	100	97	91
#95 COc1cc(NC(=O)CNCC(C)C)cc(OC)c1OC
→ -6	.	89	92
#96 CN1CCN(S(=O)(=O)c2ccc(N3CCN(c4ccccc4Cl)CC3)nc2)CC1
→ 2	.	94	91
#97 Cc1cccc(NC(=O)N2CCN(Cc3nc(-c4ccccc4)oc3C)CC2)c1
→ -8	103	.	.
#98 CCOC(=O)C1CCN(C(=O)/C(=C/c2ccc(F)cc2)c2ccsc2)CC1
→ 14	.	84	101
#99 CCCN(C(=O)c1ccccc1)c1nc(-c2ccc(C)cc2)cs1
→ -23	102	.	.
#100 O=C(O)c1ccccc1Nc1cccc(C(F)(F)F)c1
→ -4&-29&0&5&-13	99	85&69	76&63
